Screening data as filed in PubChem BioAssay.
YopH inh = YopH (Yersinia) phosphatase inhibition; fluorescence Ex485/Em525; inhibition, %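 (about 10 µM by stock and volumes)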; 140,000 tested, 0.16% active; AID 898;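 active means inhibition of 50% or more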;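 further: controls were vehicle for no effect and minimum signal wells for full effect; inactives centre near -20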
Arbovirus inh = blocks arbovirus infection. 200,000 tested, 0.37% active. AID 1251. arbovirus infection cell-based antiviral screen. inhibition, % at 10 µM;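 active means inhibition from about 30%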;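 further: bluetongue infection of BSR cells; cell survival read as ATP light after 72 h; 0% = infected wells without compound and 100% = uninfected wells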
Mtb bLac sens = beta-lactam sensitization of Mtb H37Rv. M. tuberculosis H37Rv growth with meropenem, percent inhibition; hits of this screen are not shown here. inhibition, % at 25 µM. 330,000 tested, 0.27% active;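 active means about 74% or more and at least 40 points above the plate without the antibiotic, then above 30% in a dose series; inconclusive means first-round hits that could not be retested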;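 further: growth measured after seven days incubation then overnight dye step; 0% = bacteria only wells and 100% = bacteria with antibiotic; twin plates without the antibiotic show which effects depend on it; some results filed as inactive read as strong as hits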
Mtb growth = M. tuberculosis H37Rv growth inhibitors, H37Rv strain (AID 1626) | M. tuberculosis H37Rv growth inhibition; higher % means a stronger effect | inhibition, % at 10 µM, or IC50 in µM where a hit was titrated | 220,000 tested, 0.95% active;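 active means confirmed in a dose series; inconclusive means inhibition above 80% but not taken into the dose series; inactive means below 80% or under 30% at every dose of the series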;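 further: bacteria incubated seven days before Alamar blue readout; 0% = bacteria only wells and 100% = bacteria with antibiotic wells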
RecA intein inh = Mtb RecA intein splicing inhibition | P9WHJ3 | cell-free RecA intein splicing, fluorescence | inhibition, %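 (about 9 µM by stock and volumes)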 | 290,000 tested, 0.75% active | AID 2221; in the data active means inhibition above about 30%; inconclusive means no clear call, values can overlap the other calls;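 further: 0% = vehicle wells and 100% = reference inhibitor control wells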
Target sequence (P9WHJ3 whole entry, looked up): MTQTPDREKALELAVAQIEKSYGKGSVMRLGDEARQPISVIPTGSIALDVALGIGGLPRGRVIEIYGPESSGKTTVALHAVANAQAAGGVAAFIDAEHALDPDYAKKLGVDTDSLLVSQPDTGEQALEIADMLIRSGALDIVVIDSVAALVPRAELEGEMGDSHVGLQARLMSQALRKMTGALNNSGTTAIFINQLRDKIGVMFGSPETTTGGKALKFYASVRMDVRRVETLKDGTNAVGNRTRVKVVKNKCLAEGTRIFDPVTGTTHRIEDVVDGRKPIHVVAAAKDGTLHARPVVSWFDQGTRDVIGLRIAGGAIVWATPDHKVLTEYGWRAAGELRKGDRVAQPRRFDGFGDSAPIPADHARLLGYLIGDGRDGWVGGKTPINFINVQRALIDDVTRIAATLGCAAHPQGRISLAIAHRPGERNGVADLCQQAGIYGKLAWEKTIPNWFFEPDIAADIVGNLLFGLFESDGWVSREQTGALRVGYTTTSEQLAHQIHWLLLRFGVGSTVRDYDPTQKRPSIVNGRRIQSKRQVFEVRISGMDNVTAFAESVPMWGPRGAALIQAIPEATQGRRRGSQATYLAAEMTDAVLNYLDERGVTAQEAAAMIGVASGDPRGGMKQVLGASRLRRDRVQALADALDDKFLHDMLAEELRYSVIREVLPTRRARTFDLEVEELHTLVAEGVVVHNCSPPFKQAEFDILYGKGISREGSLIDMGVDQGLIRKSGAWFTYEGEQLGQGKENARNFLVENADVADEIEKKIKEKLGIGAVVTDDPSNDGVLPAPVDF
Arbovirus inh repeat = also measured in Arbovirus inh; calls as there; inhibition, %; measured here: 10K subset replicate screen; many hits read low in the repeat;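 first of two repeat runs on a subset; 0% = infected and 100% = uninfected wells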
An asterisk follows results filed as active; ? = inconclusive; . = not tested or not shown. Not all compounds are listed (hit frequency here may not be typical).

SMILES | YopH inh | Arbovirus inh | Mtb bLac sens | Mtb growth | RecA intein inh | others
COc1ccccc1CNC(=O)C1CCC(=O)N1C(C)C (centres undefined) | . | . | 4 | . | 0.7
CCCOc1cccc(C(=O)Nc2nnn(CCC)n2)c1 | -37 | 5 | -6 | 3% | 0.7
COc1cc(SC)ccc1C(=O)OCC(=O)NCCC1=CCCCC1 | . | . | -4 | . | 2.2
CCOc1c2ccc(C(=O)NCCCCc3ccccc3)cc2nn1CC | 0 | -1 | -4 | 4% | 4.3
CC1CCN(S(=O)(=O)c2nnc(NC(=O)c3cccc([N+](=O)[O-])c3)s2)CC1 | . | . | 4 | . | -4.6
CN1CCN(CCc2cn3ncc(C#N)c3nc2-c2ccc(F)cc2)CC1 | . | 4 | -14 | 3% | -0.7
COCCOC(=O)c1c(NC(=O)CN2CCc3ccccc32)sc(C(N)=O)c1C | . | . | 1 | 7% | 2.9
CC(=O)c1ccc(S(=O)(=O)Nc2cccc(-c3ccc(N4CCOCC4)nn3)c2)cc1 | . | . | -14 | . | -0.6
O=C(CCS(=O)(=O)c1ccccc1)Nc1nc2cc3c(cc2s1)OCCO3 | . | . | ? | . | 5.5
Cc1ccc(N(CC(N)=O)C2SC(=O)NC2=O)cc1 (centres undefined) | -22 | 5 | 7 | 0% | 1.4
COc1nc(N(C)C)nc(N(C#N)CCOC(C)=O)n1 | . | 9 | 2 | -8% | -0.3
O=C(NNC(=O)NC1CCCCC1)NC1CCCCC1 | . | 0 | -2 | 0% | 1.8
c1coc(C2=Nc3cccc4cccc(c34)N2)c1 | . | 2 | 2 | 5% | .
c1ccc(CSc2nnc3c4ccccc4c4ccccc4c3n2)cc1 | . | . | -3 | . | 2.7
Cc1cccc(OCC(=O)N/N=C/c2cn[nH]c2-c2ccc(Cl)c(Cl)c2)c1 | -35 | -13 | 88 | . | -1.2
CCN1CCN(c2c(/C=C3\SC(=S)N(Cc4ccco4)C3=O)c(C)c(C#N)c(=O)n2C)CC1 | . | . | -5 | -10% | .
Cc1cccc2cc(C#N)c(N3CCOCC3)nc12 | . | . | -13 | . | -28
CCCCCCn1nc(C(=O)Nc2nc3c(s2)CCCC3)c2ccccc2c1=O | 0 | 2 | 70 | 73% | 0.3
CCCn1c(SCC(=O)Nc2ccccc2CC)nnc1C(C)C | -20 | 6 | -9 | -8% | 0.1
CCOC(=O)C1CCCN(c2ccc(NC(=O)c3snc4c(=O)[nH]cnc34)cc2)C1 (centres undefined) | -32 | 26 | . | 30% | -0.7
CC(C)(C)NC(=O)Cn1nnc(-c2ccc(OCc3c(F)cccc3Cl)cc2)n1 | . | . | 2 | . | -1.0
CCCCSc1nnc([C@H](CC(C)C)NC(=O)OC(C)(C)C)o1 | 13 | 8 | 5 | -3% | 2.7
Cc1ccc(CN2CCN(c3ccccc3)CC2)o1 | . | . | 2 | . | -3.7
COc1nnc(-c2ccc(C(=O)N3C[C@@H]4C[C@H](C3)c3cccc(=O)n3C4)cc2)c2ccccc12 | -28 | 1 | . | -6% | 1.1
CS(=O)(=O)N(CC(=O)NC1CC1)C1CCCCC1 | -23 | 4 | -2 | 32% | 2.5

The final five entries of the section before open the next one.
SMILES | YopH inh | Arbovirus inh | Mtb bLac sens | Mtb growth | RecA intein inh | others
CC(C)(C)NC(=O)Cn1nnc(-c2ccc(OCc3c(F)cccc3Cl)cc2)n1 | . | . | 2 | . | -1.0
CCCCSc1nnc([C@H](CC(C)C)NC(=O)OC(C)(C)C)o1 | 13 | 8 | 5 | -3% | 2.7
Cc1ccc(CN2CCN(c3ccccc3)CC2)o1 | . | . | 2 | . | -3.7
COc1nnc(-c2ccc(C(=O)N3C[C@@H]4C[C@H](C3)c3cccc(=O)n3C4)cc2)c2ccccc12 | -28 | 1 | . | -6% | 1.1
CS(=O)(=O)N(CC(=O)NC1CC1)C1CCCCC1 | -23 | 4 | -2 | 32% | 2.5
COc1ccc(NC(=O)CSc2n[nH]c(CNc3cccc(C)c3)n2)cc1 | . | . | 80 | . | -1.5
COc1ccc(NC(=O)CCCn2c(=S)[nH]c3ccccc3c2=O)cc1 | -18 | 0 | -4 | 9% | -3.8
CC1CN(CCc2ccccc2)C(C)C/C1=N/O (centres undefined) | . | . | -1 | . | 1.9
CCN(CC)CCN1C(=O)C2C(C(=O)Nc3cc(C)cc(C)c3)C3C=CC2(O3)C1C(=O)NC1CCCCC1 (centres undefined) | . | . | 1 | . | 0.0
CCC(Sc1ncccc1C(=O)O)C(=O)N1CCOCC1 (centres undefined) | -33 | 5 | -4 | 7% | 1.3
CCN(CC)CCNc1nc(C(F)(F)F)nc2c1nnn2Cc1ccccc1 | . | . | -8 | . | 1.0
C#CCSc1nc2sc3c(c2c(=O)n1C)CCC3 | . | . | -2 | . | 0.1
COc1ccc(Cl)cc1S(=O)(=O)N1CCN(C(=O)COc2ccccc2)CC1 | -25 | 4 | -13 | 0% | -0.3
O=C(O)Cc1ccccc1C(=O)O | -30 | 7 | -13 | -8% | -2.3
CC1CCN(CCn2c(=S)[nH]c3ccccc3c2=O)CC1 | . | . | -1 | . | -0.4
CC(C)Sc1oc(-c2ccco2)nc1S(=O)(=O)c1ccc(F)cc1 | 0 | -2 | -1 | -1% | 9.5 | Arbovirus inh repeat=-2
CCOC(=O)c1c(C)[nH]c(C)c1C(=O)COC(=O)c1ccc(Cl)c(S(=O)(=O)NCc2ccccc2)c1 | 1 | -13 | -6 | -2% | 9.0
CCc1ccc(NC(=O)CCc2nnc3ccc(N4CCCC4)nn23)cc1 | . | . | 95 | . | 0.4
O=C1CCCC(O)=C1N=Nc1ccc(S(=O)(=O)N2CCOCC2)cc1 | . | . | -7 | -4% | -2.4
COC(=O)c1ccc(/C=C/c2c(-c3ccsc3)oc3ccc(N4CCOCC4)cc23)cc1 | . | . | 99 | . | 6.1
COc1ccc2[nH]c(O)c(N=O)c2c1 | -20 | 0 | -4 | -6% | 4.0
CC(=O)Nc1ccc(S(=O)(=O)Nc2nc3ccc([N+](=O)[O-])cc3s2)cc1 | . | 3 | -11 | -9% | -2.6
O=c1cc(N2CCCCC2)c(-c2ccccc2)nn1Cc1cccc(F)c1 | . | -33 | 6 | 24% | 2.9
COc1cc(/C=C/C(=O)OCC(=O)Nc2ccc(C)c(S(=O)(=O)N3CCCCC3)c2)ccc1O | -16 | -11 | 28 | 11% | 14
CCOC(=O)c1c2n(c3c(NCc4ccccc4)ncnc13)CCCC2 | -42 | 12 | -1 | 17% | 1.0 | Arbovirus inh repeat=11
O=C(c1ccc(Cn2cc([N+](=O)[O-])cn2)o1)N1CCCCCC1 | . | . | -10 | . | -0.7
O=C(NCc1ccccn1)c1ccc2nc(C3CCCCC3)oc2c1 | . | . | 54 | . | 0.6
COc1ccccc1Nc1cc(N2CCOCC2)c2nonc2c1[N+](=O)[O-] | . | -1 | -11 | 9% | -0.6
CCCOc1ccc(C(=O)NNC(=S)NC(=O)CC)cc1 | -20 | -25 | 100 | ? | 18
COc1cc(NS(=O)(=O)c2ccc(NC(=O)COc3cccc(C)c3)cc2)nc(OC)n1 | . | . | -5 | . | 2.6
Next section
SMILES | YopH inh | Arbovirus inh | Mtb bLac sens | Mtb growth | RecA intein inh | others
COC(=O)C1=C(c2ccccc2)C[C@@H]2CC[C@H]1N2C(=O)NCc1cccc2ccccc12 | . | . | -5 | -1% | 7.6
CCOC(=O)C1CCCN(C(=O)c2cc(S(=O)(=O)N(C)C)ccc2N2CCCC2)C1 (centres undefined) | . | . | -16 | . | 2.9
CCS(=O)(=O)N1Cc2ccccc2CC1C(=O)Nc1nc(C)cs1 (centres undefined) | . | -3 | -3 | 0% | .
O=C(NC1CCCC1)c1c(O)nc2sccn2c1=O | . | . | -4 | . | -1.4
NC(=O)c1ccc(-c2ccccc2F)cc1 | . | . | 3 | -4% | -0.6
O=C(COC(=O)c1ccccc1Sc1ccc(C(F)(F)F)cc1[N+](=O)[O-])NC(=O)NC1CCCC1 | -34 | -9 | 1 | 4% | 3.3
Cc1ccc(NC(=O)CCc2c(C)nn(-c3ccc(N4CCOCC4)nn3)c2C)cc1 | . | . | -7 | . | 0.1
O=C(/C=N/NC(=O)c1ccccc1Br)c1ccccc1 | . | -5 | 1 | 3% | 1.3
CC(NC(=O)Nc1cccc(F)c1)c1ccc2c(c1)OCO2 (centres undefined) | . | . | -4 | . | 2.5
CCn1c(CC(=O)Nc2ccc(C)c(Cl)c2)nnc1SCCOc1ccc(OC)cc1 | -44 | -3 | -2 | -1% | -1.6
O=C(Oc1ccc(Cl)cc1)c1ccc(COC(=O)c2cnccn2)cc1 | -18 | -1 | 100 | 6.5µM* | 3.9
NC(=O)COC(=O)CC(NC(N)=O)c1ccc(Cl)cc1 (centres undefined) | -22 | -8 | -6 | -7% | 1.9
COC(=O)c1ccc(NC(=O)Cc2ccc(F)cc2)cc1 | . | -1 | -1 | 2% | -2.1
CC(NCCOCCOc1ccccc1)c1ccccc1 (centres undefined) | -15 | 2 | -2 | 1% | -2.4
COc1ccc(-c2nnn(CC(=O)N(c3cccc(O)c3)C(C)C(=O)NC3CCCC3)n2)cc1OC (centres undefined) | . | 3 | -5 | -4% | -2.2
c1csc(-c2noc(CN3CCN4CCCC4C3)n2)c1 (centres undefined) | . | 4 | 4 | 0% | 1.1
O=C1CN(C(=O)CN2C(=O)NC3(CCCCC3)C2=O)c2ccccc2N1 | . | -2 | -4 | -4% | 1.8
Cc1n[nH]c(=O)c2c(NC(=O)CSc3ccc(F)cc3)oc(C)c12 | . | . | -5 | . | -2.3
OC1(CNCc2ccccc2)C2CC3CC(C2)CC1C3 (centres undefined) | . | . | -10 | 11% | 0.2
Cc1ccc(CN2C(=O)CCC2C(=O)NCCCN2CCCC(C)C2)cc1 (centres undefined) | -26 | -3 | -12 | 2% | 1.9
C/C(=N\NS(=O)(=O)c1ccc(C)cc1)c1cccs1 | -18 | 3 | -2 | 4% | -2.1
O=C(Nc1nc2ccccc2[nH]1)c1ccccc1OC(F)F | . | . | 69 | . | -1.0
O=C(Nc1cccs1)OCCN1CCN(Cc2ccccc2)CCC1=O | -30 | 8 | -18 | -4% | -2.5
CCCCc1c(CCC)c(=N)c2ccccc2n1C | 28 | 6 | -7 | 11% | 2.0
COc1ccc(OC)c(C(=O)Nc2ccc3[nH]ccc3c2)c1 | . | . | -1 | . | 3.3
(listing goes on)
SMILES | YopH inh | Arbovirus inh | Mtb bLac sens | Mtb growth | RecA intein inh | others
O=C(CSc1nnc(-c2ccco2)o1)N1CCN(c2ccccc2)CC1 | . | 6 | -5 | 7% | 0.8
Cc1cccc2cc(C#N)c(NCCNC(=O)COc3ccccc3)nc12 | . | -1 | 3 | -9% | -17
CCOC(=O)c1ccc(Oc2coc3cc(O)ccc3c2=O)cc1 | . | . | 2 | . | -0.6
Nc1c(C(=O)Nc2ccccc2)sc2nc(-c3cccnc3)ccc12 | . | . | 86 | -1% | -1.9
O=S(=O)(NCc1ccc2c(c1)OCO2)c1cccc2nsnc12 | . | . | -8 | -11% | -9.1
COc1ccccc1NC(=O)COC(=O)[C@@H]1CCCN1C(=O)c1cccs1 | -12 | -4 | -2 | 2% | 2.1
CN1CCN(C(=O)c2c(O)c3cccc4c3n(c2=O)CCC4)CC1 | -34 | 17 | -3 | -14% | 0.3
O=C(Nc1ccc(OCC(=O)N2CCOCC2)cc1)c1ccccc1F | . | . | -8 | . | 2.7
O=[N+]([O-])c1cccc(S(=O)(=O)N2CCN(S(=O)(=O)N3CCCCCC3)CC2)c1 | . | . | -9 | . | 18
CCOC(=O)C1=C(C)Nc2ncnn2C1c1ccc(N(C)C)cc1 (centres undefined) | -25 | 7 | -10 | 1% | 1.1
CC(C)NC(=O)C(=O)NNC(=O)CCc1ccccc1 | . | 2 | 3 | -1% | -1.1
N#CC1=C(N)C(C#N)(C#N)C(c2cccnc2)C2CC(c3ccccc3)CC=C12 (centres undefined) | -27 | -2 | 27 | -3% | 17
CC(OC(=O)Cn1[nH]c(=O)c2ccccc2c1=O)C(=O)Nc1ccc(F)cc1 (centres undefined) | . | . | -3 | . | -1.3
COc1cc(OC)cc(C(=O)Nc2ccc(S(=O)(=O)N3CCOCC3)cc2)c1 | . | . | 5 | . | -1.5
CCOC(=O)C1=C(C)N=C2SC=C(C)N2C1c1ccc(OC)cc1 (centres undefined) | . | -16 | 2 | 1% | -12
COC(=O)c1ccc(NC(=O)C2CCCN(S(=O)(=O)c3cnc[nH]3)C2)cc1 (centres undefined) | -32 | -1 | 0 | 5% | 1.7
CC(=O)N/C(=C\c1ccccc1)C(=O)Nc1ccccc1C | . | 6 | 6 | -4% | 3.0
CCCCNC(=S)N1CCN(c2ccccc2Cl)CC1 | . | 8 | -1 | 3% | 0.4
CC(=O)c1ccc(N2CCN(C(=O)CCNC(=O)Cn3ccc4ccccc4c3=O)CC2)cc1 | . | . | -2 | . | 2.3
